Bioassay records: PubChem, several laboratories
PrP UTR inh: inhibition of PrP 5' UTR reporter expression; cell-based PrP 5' UTR mRNA reporter, plate reader; inhibition, % (concentration not given with the values); 340,000 tested, 0.35% active; AID 488862, 2010;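 active = every replicate at 50% or more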;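 note: 0 = median of the neutral control wells; tested in H4 reporter cells; numbers are from one replicate; inactives centre near -14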
Bead autofluor: counter-screen for toxin protease inhibitors: compound fluorescence; 360,000 tested, 3.1% active; AID 624483; fluorescence intensity (test concentration not listed); compound autofluorescence counterscreen, microsphere flow cytometry; hits give high values;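 active = at least 3 SD above the mean of all compounds, about 16000 in these data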;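 note: 100 nL of 1 mM stock went into each well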
Sa RN4220 lethal: growth inhibition of S. aureus RN4220, primary screen, OD600; 16 h; inhibition, % (test concentration not listed); 330,000 tested, 0.33% active; AID 1259311, 2017;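 active = z-score of -3 or lower and OD600 up to 0.18 on both plates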;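 note: plate controls were untreated cells for no effect and reference antibiotic for full effect; stock transfer was 100 nL into about 80 µL; one replicate is shown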
BJeLR lethal: MLPCN primary cell-based screen for lethality selective to Ras in HRASV12 cells; BJeLR (HRASV12) viability, CellTiter-Glo ATP luminescence, 48 h; reference of the scale not given here; inhibition, % (concentration not given with the values); 300,000 tested, 0.17% active;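 active = replicate mean above 50%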;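 note: 50 nL library stock added to about 25 µL; numbers are from one replicate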
Mtb hypoxia inh: PubChem AID 1159583; M. tuberculosis hypoxia-regulated fluorescent reporter, fluorescence; fluorescence inhibition, % (concentration not given with the values); 300,000 tested, 0.1% active;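 active = 35 to 45% if threefold the growth effect, above 45% if 1.5-fold the growth effect; inactive = the rest, general growth blockers included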;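 note: wells of about 50 µL received 100 nL stock; 0% = vehicle wells and 100% = reference inhibitor wells; whole bacteria with a GFP reporter of the hypoxia response; strong numbers were not always called active; many hits fall short of the cut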
ugtP null kill: growth inhibition of ugtP-null S. aureus, primary screen, RN4220 ugtP deletion, OD600 | AID 1259309, 2017 | 16 h; some inactives read as strong as hits | 330,000 tested, 0.54% active | growth inhibition, % (no concentration beside the values);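 active = z-score under -3 and OD600 up to 0.15 on both plates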;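 note: plate controls were untreated wells for no effect and antibiotic for full effect; wells of about 80 µL received 100 nL stock; the first replicate is given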
Mtb hypoxia inh growth: further read-out of Mtb hypoxia inh, marked with its call; growth inhibition, %; measured here: M. tuberculosis growth (absorbance);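 0% = vehicle and 100% = reference antibiotic; read after six days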
An asterisk follows results filed as active; nt = no result given; & = joins results of further samples. Compounds were not picked by outcome. Share with any hit: about 3.9%.

molecule	PrP UTR inh	Bead autofluor	Sa RN4220 lethal	BJeLR lethal	Mtb hypoxia inh	Mtb hypoxia inh growth	ugtP null kill
O=C1CC(NCc2ccc(F)cc2)C(=O)N1c1ccccc1 (stereo not given)	-12	4106	7.6	0	-8	-8	4
CSc1ccc(CNc2ccc(C)cc2)cc1	-84	11174	-0.7	-4	5	12	17
COc1cc2c(cc1OC)CN(C(=O)C1CCCN1S(=O)(=O)c1ccc(C)cc1)CC2 (stereo not given)	-22	5422	1.0	-11	nt	nt	-9
O=C(N=C1SC2CS(=O)(=O)CC2N1c1ccccc1)c1cccc([N+](=O)[O-])c1 (stereo not given)	-7	4293	3.1	nt	1	2	3
COc1ccc(N2CCN(c3nc4c(c(=O)n(C)c(=O)n4C)n3Cc3ccccc3)CC2)cc1	-22	3213	nt	10	nt	nt	nt
C[C@H]1CN[C@@H](CCO)/C1=C\c1ccccc1	-5	3763	0.2	nt	-2	-1	3
COc1ccc(C(=O)Nc2ccc(-c3ccc(C)o3)cc2)cc1S(=O)(=O)N1CCOCC1	-5	3303	2.1	13	-5	3	-2
Cc1ccc2c(CN3CC(C)CC(C)C3)cc(=O)oc2c1 (stereo not given)	-14	3718	0.6	7	15	-2	1
CC1CC1C(=O)OCC(=O)Nc1cccc(F)c1 (stereo not given)	-15	5854	4.3	nt	9	16	-1
CC(C)CC(OC(=O)c1cccs1)C(=O)NCc1cccs1 (stereo not given)	-8	4471	14	0	11	6	-8
CC1CCCC(C)N1/N=C/c1ccc(O)c(O)c1 (stereo not given)	-24	3332	nt	7	nt	nt	nt
COC(=O)CSc1nc(C)cc(C)n1	-26	4901	4.3	-2	-4	-3	-4
COc1ccccc1OCCSc1nnc(C)n1-c1ccccc1	-31	3686	1.9	1	nt	nt	11
O=C(CCC(=O)N(CC(=O)NC1CCCC1)Cc1ccccc1Cl)Nc1nccs1	-23	2966	-2.0	-1	7	4	7
CCOC(=O)N1CCN(C(=O)c2cnn3c(C)c(Cc4ccc(C)cc4)c(C)nc23)CC1	-17	23293*	4.7	2	3	0	2
Cc1[nH]oc(=O)c1N=Nc1c(Cl)cccc1Cl	-17	2005	11	-14	7	8	0
Cc1cccc(C(=O)N/N=C/c2ccoc2)c1	-20	5889	nt	-7	nt	nt	nt
CCOC(=O)c1c(N)nn(C(=O)C(C)C)c1-c1ccc(OC)cc1	-9	16326*	0.3	6	-9	1	3
COc1ccc(N=Cc2c(O)ccc3ccccc23)cc1	-10	4969	3.0	-9	3	6	-4
CC(=O)Nc1cnc2ccccc2n1	-21	3195	2.8	nt	nt	nt	7
CC1=C(C(=O)NCc2ccccc2)C(c2cccnc2)n2ncnc2N1 (stereo not given)	-23	3109	-11	-2	4	3	-4
CCN(C[C@H]1N[C@@](CC)(C(=O)OC)[C@H]2C(=O)N(Cc3ccccc3)C(=O)[C@@H]12)C(=O)Nc1ccc(C)cc1	-16	3704	2.4	nt	-7	2	-1
O=C(Nc1sc2c(c1C(=O)O)CCC2)C(=O)N1CCOCC1	-19	6038	4.0	6	-8	-2	-8
Clc1ccc(-n2cccc2/C=N/n2cnnc2)cc1	-2	3992	nt	-8	nt	nt	nt
CCCCc1ccc(NC(=S)N2CCN(c3ccccn3)CC2)cc1	-10	3624	1.6	3	6	0	3
O=C(Nc1c[nH]c(=O)[nH]c1=O)c1cccc(F)c1	-22	3259	-4.1	-4	5	-9	4
N#Cc1ccc(S(=O)(=O)N2CCN(C(=O)c3cn(-c4ccccc4)nc3-c3cccnc3)CC2)cc1	-17	8436	-0.7	nt	4	6	2
CC(=O)c1c(N2CCOCC2)nc(=S)n(Cc2ccccc2)c1C	-7	2989	-1.5	-3	nt	nt	1
Cc1cc(C)n(C(=O)C(C)n2nc([N+](=O)[O-])c(Br)c2C)n1 (stereo not given)	-24	2126	5.6	-11	8	7	1
CCN1C(=O)C(CC(=O)Nc2ccc(F)cc2)N(CCc2ccc(OC)cc2)C1=S (stereo not given)	-21	3924	nt	-5	nt	nt	nt
O=C(COC(=O)/C=C/c1cccc(Cl)c1)NCCc1ccccc1	-13	2363	1.9	6	-2	6	0
O=C(CSc1nnc(NC(=O)C2CC(=O)N(c3ccccc3)C2)s1)NC1CCCC1 (stereo not given)	-21	5882	1.0	7	12	9	2
CCCOc1ccc(OC(=O)Cc2ccc(OC)c(S(=O)(=O)N3CCOCC3)c2)cc1	6	4570	2.4	1	7	2	8
Cc1cccc(C(NC(=O)OC(C)(C)C)C(=O)OC(C)(C)C)c1 (stereo not given)	nt	nt	-0.6&3.4	nt	-2&11	6&-2	2&0
c1ccc(SSc2ccccc2)cc1	6	5635	nt	3	nt	nt	nt
COC(=O)Cn1cnc2c(cnn2-c2ccccc2)c1=O	2	3472	2.3	4	13	10	1
COc1cc(CCC(N)c2cccc(O)c2)cc(OC)c1OC (stereo not given)	-11	3966	6.9	nt	21	9	0
C[n+]1cccc(C(=O)NN=Cc2ccc3c(c2)OCO3)c1	nt	nt	0.7	nt	4	11	7
CC(=O)Nc1ccc(S(=O)(=O)Oc2ccc(/C=C3\SC(N)=NC3=O)cc2)cc1	-15	4526	nt	7	nt	nt	nt
CCN(CC)c1ccc(/C=C/C(=O)c2cccnc2)cc1	5	1926	4.2	-3	-15	-3	6
O=[N+]([O-])c1cc(S(=O)(=O)N2CCCC2)ccc1NN=C1CCCc2ccccc21	nt	nt	1.9	nt	6	-1	-3
COC(=O)c1ccccc1NC(=O)CN1CCN(C(=O)c2ccco2)CC1	1	3870	13	-3	nt	nt	9
COc1ccccc1/C=C/C(=O)N1CCCC1	-8	2435	1.1	7	nt	nt	7
CSc1ccc(Cl)c(C(=O)Nc2ccc(OCC(N)=O)cc2)c1	-9	8178	-0.3	-5	21	15	11
Cc1ccc(S(=O)(=O)N2C(c3ccc4c(c3)OCO4)CC=C(C(=O)O)C2c2ccccc2)cc1 (stereo not given)	nt	nt	18	nt	4	3	22
Cc1[nH]n(-c2ccccc2)c(=O)c1C=Nc1cccc(F)c1	-31	5180	2.3	3	14	-6	4
COC(=O)C1=C(c2ccc(OC(F)(F)F)cc2)CC2CCC1N2C(=O)N1CCOCC1 (stereo not given)	nt	nt	7.3	nt	2	0	2
COc1ccc(C/C(C)=N/NC(=O)c2ccc(C)cc2C)cc1	-27	2792	nt	-6	nt	nt	nt
CCCc1cc(=O)n2nc(N3CCC(C(=O)NCc4ccco4)CC3)sc2n1	-14	5533	2.6	0	-1	5	7
Nc1cc2c(cc1O)CCCC2	-40	2636	5.0	-15	6	-7	-9
Cc1ccc(C)c2[nH]c(=O)c(CCNC(=O)c3ccc(S(=O)(=O)N4CCOCC4)cc3)cc12	-2	5613	-0.5	3	0	8	2
CC1(c2ccccc2)NC(=O)N(CC(=O)N2CCN(S(=O)(=O)c3cccc([N+](=O)[O-])c3)CC2)C1=O (stereo not given)	-14	5837	13	7	3	4	6
Cc1ccsc1/C=C(\CC(=O)O)c1nc2ccccc2o1	-39	4784	8.7	10	-6	-3	0
COc1ccc(S(=O)(=O)N2CCN(C(=O)c3ccco3)CC2)cc1OC	2	8310	6.1	7	1	5	11
COc1ccccc1N1CCN(S(C)(=O)=O)CC1	-9	6934	5.2	6	4	4	4
OCCC1CN(Cc2cccn2-c2nccs2)CCN1Cc1ccc(F)c(F)c1 (stereo not given)	-26	2916	3.9	1	4	8	5
CCOC(=O)c1oc2cccc(OC(C)=O)c2c1C	-67	3765	-1.9	-2	nt	nt	5
COc1ccc(NS(=O)(=O)c2cc(NC(=O)CC3CCCC3)ccc2N2CCOCC2)cc1	7	4025	0.0	-6	15	6	0
Cc1cc(Cl)nc(Cl)c1C(=O)NCc1ccc(Cl)cc1	0	3966	-0.6	-9	-2	1	-3
COc1ccc(S(=O)(=O)N(CC(=O)NCC2CCCO2)Cc2ccccc2)cc1 (stereo not given)	-28	5916	3.3	-3	4	-2	8

Results in Mtb hypoxia inh growth, for 2 of the compounds above:
smiles | Mtb hypoxia inh growth
Nc1cc2c(cc1O)CCCC2 | -7
O=C(CSc1nnc(NC(=O)C2CC(=O)N(c3ccccc3)C2)s1)NC1CCCC1 (stereo not given) | 9

More records follow.
molecule	PrP UTR inh	Bead autofluor	Sa RN4220 lethal	BJeLR lethal	Mtb hypoxia inh	Mtb hypoxia inh growth	ugtP null kill
CCOP(=O)(OCC)C(NC(=O)c1cc([N+](=O)[O-])cc([N+](=O)[O-])c1)C(F)(F)F (stereo not given)	-14	4631	6.1	-4	3	3	4
NC1=NC(=O)/C(=C\C=C\c2ccccc2)S1	-27	2204	4.7	1	9	1	5
CCC1(CC)NC(=O)N(CC(=O)OC(C)C(=O)Nc2ccc(Cl)cn2)C1=O (stereo not given)	-10	7634	1.4	13	-8	6	0
Cc1ccc(C)c(NC(=O)C(Sc2nc3ccc(C)cc3[nH]2)c2ccccc2)c1 (stereo not given)	3	2334	-8.2	0	4	3	-10
Cc1ccc(S(=O)c2ccc(NC(=O)C3CC3)cc2C#N)cc1 (stereo not given)	2	4734	-0.3	nt	2	3	-2
CCN1CCN(c2cc(C)c3cc(NC(=O)Cc4ccc(OC)c(OC)c4)ccc3n2)CC1	7	5965	2.4	1	7	3	10
O=C(C1CCC1)N1CCc2cc(S(=O)(=O)NCc3cccnc3)ccc21	-19	4231	-0.2	4	nt	nt	15
Cc1cccc2c1-c1sc(C(=O)NCCCN3CCC(C)CC3)cc1CO2	6	6799	-9.3	10	11	9	-10
CC1CCCCC1NC(=O)Cn1c(=O)cnc2ccccc21 (stereo not given)	-2	3828	2.5	nt	12	9	-1
CCCc1nn(C)c2c(=O)[nH]c(-c3cc(S(=O)(=O)Nc4ccc(NC(C)=O)cc4)ccc3OCC)nc12	-14	6489	2.5	-1	2	10	-7
O=C1N(Cc2ccccc2)c2ccc(Cl)cc2C12OCCO2	-10	4315	1.9	10	-2	9	13
Cc1ccc(C=NNC(=O)c2nnn(-c3nonc3N)c2CSc2ccc(Cl)cc2)o1	nt	nt	1.1	nt	-1	-4	5
CN1CCC(N(C)C(=O)/C=C/c2cn(-c3ccccc3)nc2-c2cccs2)CC1	5	5216	-3.3	9	7	11	3
COc1ccc(C(=O)NC(=S)NCc2cccnc2)cc1Br	-18	2545	6.4	-3	17	10	53
CCOc1ccc(CN2CCN(CC3=Cc4cccc(OC)c4OC3)CC2CCO)cc1 (stereo not given)	-7	2687	4.0	-1	0	-1	6
COc1ccc(-c2cc(C)no2)cc1S(=O)(=O)Nc1cccc(CN2CCCC2)c1	0	4221	-0.6	4	-10	2	3
CCOC(=O)N1CCN(CC(=O)N2c3ccccc3CC2C)CC1 (stereo not given)	-4	25433*	3.9	-10	0	4	0
N/C(=N\OC(=O)CCC1CCCC1)c1cccnc1	-89	2049	5.4	-1	11	5	0
CC(=O)NC12CC3CC(C1)CC(C(=O)N1CCN(S(=O)(=O)c4cccc(F)c4)CC1)(C3)C2	-17	4519	2.3	-9	-4	-8	9
CC(C)(C)S(=O)(=O)c1cnc(-c2ccccn2)nc1N	-5	5533	3.0	-4	2	-10	14
CCCCCC(=O)N1CC2(CC(c3cccc(NC(=O)CC)c3)=NO2)CC1C(N)=O (stereo not given)	nt	nt	-1.7	nt	0	1	-11
COc1ccc2cc(CCNC(=O)c3cccs3)c(=O)[nH]c2c1	-78	4170	2.7	3	6	9	3
O=C(c1ccco1)N1CCN(C(=O)c2ccc(COc3ccc4c(c3)CCC4)o2)CC1	-9	3321	0.2	-4	-9	7	-7
Cc1nn(-c2ccc(Cl)cc2)c(Cl)c1C=NNC(=O)c1ccc(NS(=O)(=O)c2cccs2)cc1	nt	nt	40	nt	6	7	33
Cc1cc(C)c(Cc2c(C)nc3c(C(=O)NCc4ccco4)cnn3c2C)c(C)c1	-25	11544	-5.1	5	3	0	-25
